Ecoli rRNA inh – reduced GFP signal of wild-type E. coli, primary screen, bacterial rRNA inhibitor project, GFP/RFP fluorescence, OD600, single point; E. coli WT GFP vs humanized-ribosome RFP mutants, 24 h; hits give low values; DMSO median 0, no signal -100; GFP signal change (wild-type ribosome), % (no concentration beside the values); actives 1.6% (n = 350,000); AID 720706, 2013;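 active = significant combined selectivity score with lowered wild-type GFP, culture density cut under 30%, mutant RFP and density less affected; inactive = any of these conditions unmet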; also: one replicate is shown; some compounds called inactive have numbers as strong as hits
FGF22 binding – binders of human FGF22 protein, primary screen, FGF22 synaptogenesis inhibitor project, biophysical, thermal shift, single point; recombinant FGF22 thermal shift, SYPRO orange fluorescence; percent of sucrose octasulfate shift, DMSO zero; calls only at 9.99 µM; actives 1.5% (n = 340,000); AID 651658, 2012;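 active = melting point raised past a set limit in the mean and every replicate; three in four hits are not shown here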
Target sequence (Q9HCT0 whole entry, looked up): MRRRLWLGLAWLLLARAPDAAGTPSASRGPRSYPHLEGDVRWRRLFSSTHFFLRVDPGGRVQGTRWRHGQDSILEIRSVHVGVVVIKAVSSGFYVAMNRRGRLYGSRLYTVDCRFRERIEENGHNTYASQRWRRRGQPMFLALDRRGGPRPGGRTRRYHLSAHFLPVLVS
MLL AF4-AF9 inh – inhibitors of AF4 peptide binding to AF9, primary screen, biochemical, AlphaScreen, biotin-AF4 peptide, FLAG-AF9, single point; Protein AF-9 (Homo sapiens), P42568; inhibition, % at 10 µM; actives 0.47% (n = 350,000); AID 651704, 2012;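 active = every replicate reaching a set inhibition limit, whatever the replicate mean, cut at about 25% in these data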;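 also: 0% = plate neutral control median and 100% = total signal loss; the record names both 10 and 1 µM as test concentration; the first replicate is given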
Target sequence (P42568 whole entry, looked up): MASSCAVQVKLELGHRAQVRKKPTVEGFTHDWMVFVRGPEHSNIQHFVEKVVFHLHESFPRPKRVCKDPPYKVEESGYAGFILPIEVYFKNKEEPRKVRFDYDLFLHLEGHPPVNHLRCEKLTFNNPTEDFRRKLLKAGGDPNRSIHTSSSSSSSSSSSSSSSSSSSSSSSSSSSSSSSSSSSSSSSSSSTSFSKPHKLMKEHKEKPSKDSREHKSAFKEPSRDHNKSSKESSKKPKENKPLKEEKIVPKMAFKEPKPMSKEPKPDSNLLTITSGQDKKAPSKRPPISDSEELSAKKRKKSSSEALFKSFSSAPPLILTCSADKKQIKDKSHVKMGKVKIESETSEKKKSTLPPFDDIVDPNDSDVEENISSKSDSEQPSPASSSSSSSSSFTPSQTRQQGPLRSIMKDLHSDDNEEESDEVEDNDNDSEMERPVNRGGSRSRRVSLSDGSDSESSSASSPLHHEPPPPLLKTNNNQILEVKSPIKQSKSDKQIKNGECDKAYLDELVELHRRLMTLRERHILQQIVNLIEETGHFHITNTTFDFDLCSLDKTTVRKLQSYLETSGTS
Ecoli rRNA inh OD600 – further read-out of Ecoli rRNA inh, marked with its call; OD600 change, %; measured here: OD600 growth;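 optical density of the mix in the first replicate; 0 = DMSO median and -100 = no signal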
Ecoli rRNA inh RFP – second read-out of Ecoli rRNA inh, no call of its own (marks repeat the call); RFP signal change, %; measured here: RFP humanized mutant strains;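 first replicate; 0 = DMSO median and -100 = no signal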
An asterisk follows results filed as active; i = inactive; & = joins results of further samples. A portion of the library; the hit share may differ from the screen's.

SMILES,Ecoli rRNA inh,Ecoli rRNA inh OD600,Ecoli rRNA inh RFP,FGF22 binding,MLL AF4-AF9 inh
COc1ccccc1C#Cc1ccc2c(c1)[C@H]1[C@H](CCN1C(=O)c1ccc(F)cc1)[C@H](CO)N2,-2,7,-2.9,i,-2.4
C[C@H]1CN([C@@H](C)CO)C(=O)c2cc(-c3cccc(C#N)c3)cnc2O[C@@H]1CN(C)C(=O)C1CCOCC1,3,-1,4.1,i,-5.3
CCC(=O)N(C)C[C@@H]1[C@H](c2ccc(-c3cccnc3)cc2)[C@H](CO)N1C(C)=O,3,6,-2.5,i,0.1
C[C@@H]1CN([C@@H](C)CO)C(=O)CCCn2cc(nn2)CO[C@@H]1CN(C)C(=O)NC1CCCCC1,1,2,2.1,i,0.8
COc1ccc([C@@H]2CC=C(C(=O)O)[C@H](c3ccc(Br)cc3)N2S(=O)(=O)c2ccccc2C)cc1,2,-30,-5.0,i,2.0
CNC[C@H]1Oc2cc(C#CCN(C)C)ccc2S(=O)(=O)N([C@@H](C)CO)C[C@H]1C,-1,-2,-2.2,i,10
O=C(NCCc1ccccc1)c1ccc(NC(=O)C2CC2)cc1,1,18,-2.3,i,-7.6
Cc1noc(C)c1S(=O)(=O)N(C)C[C@H]1OCc2ccccc2-c2ccccc2C(=O)N([C@H](C)CO)C[C@H]1C,1,2,0.5,i,-4.1
CCN(CC(=O)Nc1ccc(NC(C)=O)cc1)C(=O)c1ccc(N2C(=O)c3ccccc3C2=O)cc1,17,11,7.6,i,-3.3
COc1ccc(NC(=O)N(C)C[C@H]2Oc3ncc(C4=CCCC4)cc3C(=O)N([C@H](C)CO)C[C@@H]2C)cc1,0,-5,0.7,i,-3.8
CC(C)CC1CCCC12NC(=O)NC2=O (configuration not stated),4,9,-1.9,i,-16
O=C(C[C@H]1CC[C@@H]2[C@H](COC[C@H](O)CN2C(=O)c2ccccc2F)O1)NCc1ccc(-c2ccccc2)cc1,-3,-24,7.2,i,-0.2

Continued.
SMILES,Ecoli rRNA inh,Ecoli rRNA inh OD600,Ecoli rRNA inh RFP,FGF22 binding,MLL AF4-AF9 inh
Cn1ccc2cc(OCc3ccccc3)ccc21,1,10,3.7,i,6.7
CNC[C@@H]1Oc2cc(-c3cccc(C(=O)N(C)C)c3)ccc2S(=O)(=O)N([C@H](C)CO)C[C@H]1C,1,-6,-1.3,i,0.7
CCOc1ccc(-c2cc(C(=O)NCc3ccc(C(F)(F)F)cc3)[nH]n2)c(C)c1,10,6,2.6,i,-0.3
COc1ccccc1C#Cc1ccc2c(c1)[C@@H]1[C@@H](CCN1S(=O)(=O)c1cccc(C)c1)[C@H](CO)N2,3,9,0.0,i,6.2
O=C(Nc1ccccc1)Oc1cccc2cccnc12,8,14,1.6,i,-0.9
CCN(C[C@H]1N[C@@](Cc2ccccc2)(C(=O)OC)[C@H]2C(=O)N(Cc3ccccc3)C(=O)[C@@H]12)C(=O)Nc1ccc(C)cc1,-4,6,-5.6,i,4.0
CN(C)c1ccc(-c2csc(C(O)c3ccc(F)cc3)n2)cc1 (configuration not stated),-4,-14,-4.6,i,4.5
COc1ccc(NC(=O)N(C)C[C@H]2OCCCC[C@@H](C)Oc3ccc(NS(C)(=O)=O)cc3C(=O)N([C@@H](C)CO)C[C@H]2C)cc1,-2,-3,0.2,i,-1.9
COc1cccc(-c2sc3ccc(OC)cc3c2-c2cnc(N3CCOCC3)nc2)c1,3,5,1.8,i,-1.0
CC(C)NC(=O)N(C)C[C@H]1OCCCC[C@@H](C)Oc2ccc(NC(=O)CCCN(C)C)cc2C(=O)N([C@@H](C)CO)C[C@@H]1C,1,2,0.1,i,-0.7
C[C@@H]1CCCCO[C@@H](CN(C)S(=O)(=O)c2cccs2)[C@@H](C)CN([C@@H](C)CO)C(=O)c2cc(NS(=O)(=O)c3ccc(F)cc3)ccc2O1,6,4,8.9,i,-2.3
CO[C@H]1CN(C)C(=O)c2ccc(NS(C)(=O)=O)cc2OC[C@H](C)N(Cc2cccnc2)C[C@@H]1C,4,5,0.0,i,0.7

Remaining list, next part:
SMILES,Ecoli rRNA inh,Ecoli rRNA inh OD600,Ecoli rRNA inh RFP,FGF22 binding,MLL AF4-AF9 inh
C[C@@H]1CN([C@@H](C)CO)S(=O)(=O)c2ccc(C#Cc3ccccn3)cc2O[C@@H]1CN(C)CC1CC1,-1,2,0.9,i,1.8
C[C@@H]1CN([C@H](C)CO)C(=O)CCCn2nncc2CO[C@@H]1CN(C)C(=O)Nc1ccc(C(F)(F)F)cc1,-18*,-14*,4.2*,i,-0.4
O=C(C[C@H]1C[C@H]2c3cc(NC(=O)C4CCC4)ccc3O[C@H]2[C@@H](CO)O1)NCc1ccccc1F,3,7,-1.2,i,-13
COCC(=O)N(C)C[C@@H]1Oc2ncc(-c3ccccc3OC)cc2C(=O)N([C@H](C)CO)C[C@@H]1C,-3,8,-0.3,i,-17
O=C(COC(=O)Cc1ccccc1F)NCc1ccccc1Cl,-6,-1,3.8,i,5.8
COc1ccccc1C#Cc1ccc2c(c1)[C@H]1[C@H](CCN1C(=O)c1ccccc1)[C@H](CO)N2,-6,5,-2.4,i,0.3
C[C@@H]1CN([C@@H](C)CO)C(=O)Cc2cc(NC(=O)NC3CCCCC3)ccc2O[C@H]1CN(C)S(C)(=O)=O,0,-9,-2.0,i,1.2
COc1ccc(NC(=O)N(C)C[C@H]2OCCCC[C@@H](C)Oc3ccc(NC(=O)C4CCCCC4)cc3C(=O)N([C@@H](C)CO)C[C@H]2C)cc1,-2,-10,-2.0,i,0.3
C[C@H](CO)N1C[C@H](C)[C@H](CN(C)C(=O)c2ccc3c(c2)OCO3)Oc2ncc(C#Cc3ccccc3F)cc2C1=O,-1,-12,9.2,i,2.5
S=C(Cc1ccccc1)Nc1ccccc1,-3,-5,-3.5,i,-4.3
COC(=O)[C@@]1(Cc2ccccc2)[C@H]2C(=O)N(Cc3ccccc3)C(=O)[C@H]2[C@H]2CN=C(SCc3ccc(C#N)cc3)N21,-26,-40,-1.8,i,-0.9
O=C1c2ccccc2C(c2nnnn2Cc2ccccc2)N1Cc1cccs1 (configuration not stated),-26*,-19*,-5.0*,i,-2.3&1.0

(list continues)
SMILES,Ecoli rRNA inh,Ecoli rRNA inh OD600,Ecoli rRNA inh RFP,FGF22 binding,MLL AF4-AF9 inh
CCC(=O)NC[C@@H]1[C@H](c2ccc(-c3cccc(F)c3)cc2)[C@H](CO)N1C(=O)CC,-5,-8,0.2,i,1.6
C[C@@H](NC(=O)C[C@@H]1C=C[C@H](NC(=O)C2CCOCC2)[C@@H](CO)O1)c1ccccc1,-1,1,-0.7,i,0.7
C[C@H](CO)N1C[C@H](C)[C@@H](CN(C)Cc2ccncc2)OCc2cnnn2CCCC1=O,-1&0,3&4,-1.9&0.0,i,-12&2.3&-3.6
CCCNC(=O)N(C)C[C@H]1Oc2ncc(-c3ccccc3)cc2C(=O)N([C@@H](C)CO)C[C@@H]1C,-1,5,-1.5,i,0.3
C[C@@H]1CN([C@@H](C)CO)C(=O)c2c(c3ccccc3n2C)-c2ccccc2CO[C@@H]1CN(C)CC1CC1,0,-3,3.7,i,-1.8
C[C@@H]1CCCCO[C@H](CN(C)C(=O)c2ccncc2)[C@H](C)CN([C@@H](C)CO)C(=O)c2cc(NS(C)(=O)=O)ccc2O1,2,2,-0.8,i,0.9
COc1ccc(-c2ccc([C@H]3[C@@H](CO)N4CCCCN(C(=O)NC(C)C)C[C@@H]34)cc2)cc1,2,5,2.4,i,1.8
CCC(=O)N1[C@@H]2Cn3c(ccc(-c4cccnc4)c3=O)[C@H]1[C@@H](C(=O)NC1CCC1)[C@@H]2CO,-3,2,-4.1,i,-0.6
CO[C@@H]1CN(C)C(=O)c2ccc(NC(=O)Nc3ccccc3)cc2OC[C@H](C)NC[C@H]1C,-1,4,0.0,i,2.5
COc1ccc(CN(C)C[C@@H]2Oc3ccc(NS(=O)(=O)c4cccs4)cc3CC(=O)N([C@H](C)CO)C[C@H]2C)cc1,-2,5,0.8,i,-2.2
CN(C)CCCNC(=O)C[C@@H]1CC[C@H]2[C@@H](COC[C@H](O)CN2CC2CCCC2)O1,-5,1,6.4,i,-1.6
C[C@H](CO)N1C[C@H](C)[C@H](CN(C)C(=O)Nc2cccc3ccccc23)Oc2ccc(NC(=O)CCN3CCOCC3)cc2CC1=O,1,8,-0.2,i,2.1

Next entries follow.
SMILES,Ecoli rRNA inh,Ecoli rRNA inh OD600,Ecoli rRNA inh RFP,FGF22 binding,MLL AF4-AF9 inh
N#C[C@H]1[C@@H](c2ccc(-c3ccccc3F)cc2)[C@H](CO)N1C(=O)C1CC1,0,1,-0.4,i,-0.6
CO[C@@H]1CN(C)C(=O)c2ccc(NC(=O)C3CC3)cc2OC[C@H](C)N(Cc2cccnc2)C[C@@H]1C,-2,1,-1.3,i,-2.1
COc1ccc(NC(=O)Nc2ccc3c(c2)C(=O)N([C@H](C)CO)C[C@H](C)[C@H](CN(C)S(=O)(=O)c2cccs2)OCCCC[C@@H](C)O3)cc1,1,2,-0.2,i,-2.2
O=C(C[C@H]1C[C@@H]2c3cc(NC(=O)CC4CC4)ccc3O[C@@H]2[C@@H](CO)O1)NCc1ccc(Cl)cc1,-6,-1,3.9,i,0.5
CC=Cc1ccc2n(c1=O)C[C@@H]1[C@@H](CO)[C@H](C(=O)N(C)C)N(C(=O)CC3CC3)[C@H]21 (mixture of isomers),0,1,-4.0,i,-0.1
O=C(C[C@@H]1CC[C@@H]2[C@H](COC[C@@H](O)CN2C(=O)Nc2cccc(Cl)c2)O1)N1CCCCC1,-58,-79,-19,i,-0.4
COCCNc1nc2cc(-c3ccc(C)cc3)sc2c(=O)n1C,5,-4,-1.3,i,0.6
C[C@H]1CN([C@@H](C)CO)C(=O)c2cc(-c3ccncc3)cnc2O[C@@H]1CN(C)C(=O)Cc1ccccn1,0,1,-1.4,i,-2.9
COc1cccc(S(=O)(=O)Nc2ccc3c(c2)[C@H]2C[C@H](CC(=O)NCC(F)(F)F)O[C@H](CO)[C@H]2O3)c1,-1,-5,-1.9,i,0.4
Cc1noc(C)c1S(=O)(=O)N(C)C[C@@H]1OCCCC[C@@H](C)Oc2ccc(NS(C)(=O)=O)cc2C(=O)N([C@@H](C)CO)C[C@@H]1C,-2,2,-0.9,i,-10
C[C@@H]1CCCCO[C@H](CN(C)C(=O)Cc2ccccc2)[C@H](C)CN([C@@H](C)CO)C(=O)c2cc(NC(=O)c3ccccc3)ccc2O1,-35,-44,-7.6,i,0.0
C[C@H](O)C#Cc1cnc2c(c1)C(=O)N([C@@H](C)CO)C[C@@H](C)[C@@H](CN(C)Cc1ccccn1)O2,5,13,-0.5,i,-3.7

Later entries:
SMILES,Ecoli rRNA inh,Ecoli rRNA inh OD600,Ecoli rRNA inh RFP,FGF22 binding,MLL AF4-AF9 inh
CCCC(=O)Nc1ccc2c(c1)OC[C@@H](C)N(Cc1cc(-c3ccccc3)on1)C[C@@H](C)[C@H](OC)CN(C)C2=O,1,3,1.7,i,1.3
C[C@H]1CN([C@@H](C)CO)C(=O)c2cccc(NC(=O)NC3CCCCC3)c2O[C@H]1CN(C)C(=O)Nc1ccccc1,2,-7,-4.4,i,1.6
C[C@H]1CCCCO[C@@H](CN(C)S(=O)(=O)c2cn(C)cn2)[C@@H](C)CN([C@@H](C)CO)C(=O)c2cc(NS(=O)(=O)c3ccc(Cl)cc3)ccc2O1,-3,3,1.5,i,-17
COc1cccc(C2CC(OCCF)=CC(=O)O2)c1 (configuration not stated),1,13,5.3,i,0.5
C[C@@H]1CN([C@H](C)CO)C(=O)c2cc(NS(=O)(=O)c3ccccc3)ccc2O[C@@H](C)CCCCO[C@@H]1CN(C)C,-1,0,-3.4,i,-2.4
N#Cc1ccc(-c2ccc3nccn3c2)cc1,15,12,1.4,i,-0.5
O=S(=O)(c1ccc(F)cc1)N1CCCCN2[C@H](C1)[C@H](c1ccc(C#CC3CC3)cc1)[C@@H]2CO,-1,21,8.1,i,-4.0
OC[C@@H]1[C@H]2c3ccccc3NC[C@H]2N1CC1CCOCC1,-2,2,1.3,i,-2.0
COc1cccc(-c2cnc(C(O)c3ccc(C)cc3C)[nH]2)c1 (configuration not stated),2,-12,-1.5,i,5.6
